# HPGD block – qHTS Assay for Inhibitors of HPGD (15-Hydroxyprostaglandin Dehydrogenase). 15-hydroxyprostaglandin dehydrogenase [NAD(+)] (Homo sapiens), P15428. purified HPGD, NADH fluorescence kinetic, PGE2 substrate. Potency, µM, inactives show top-dose activity change, negative = inhibition, most hits filed as inhibitors. hit rate 4.3% among 150,000. AID 894, 2007; active = well fitted inhibition curve with a large enough effect (not every such curve was filed as active); inconclusive = small, poorly fitted or top-dose-only effect, or another doubt; inactive = no such curve, though single readings can be large or run the other way;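 note: top concentration of the series not given in the record; plate controls included wells without enzyme; inactives centre near -10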
# Target sequence (P15428 whole entry, looked up): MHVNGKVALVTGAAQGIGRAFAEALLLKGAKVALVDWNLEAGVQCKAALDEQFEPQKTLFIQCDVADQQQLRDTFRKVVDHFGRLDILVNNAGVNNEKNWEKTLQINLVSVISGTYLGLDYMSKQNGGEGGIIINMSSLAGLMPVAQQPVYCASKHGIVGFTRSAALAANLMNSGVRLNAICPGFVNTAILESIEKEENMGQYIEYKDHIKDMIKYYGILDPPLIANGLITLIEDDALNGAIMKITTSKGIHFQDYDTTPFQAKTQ
#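 NADH formation kinetics: reaction with 30 uM PGE2 and 1 mM NAD+ (final), 20 nM enzyme, Tris-HCl pH 8 with Tween 20, after 15 min compound preincubation at room temperature. Fluorescence change, last versus first of five reads.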
# Starred values were filed as active, the others as inactive; ? = inconclusive. % is set by controls: 0 for no effect and ±100 for the full control effect; potency is the fitted concentration of half-maximal effect.
SMILES,HPGD block
Nc1ccc(Cl)cc1/C(=N/O)c1ccccc1,-8.5%
C=CCNC(=S)Nc1ccc2nc(C)c(C)nc2c1,-23.7%
O=C(Nc1cccc(Cl)c1)N1CCSc2cc(Cl)ccc21,-17.3%
O=C(O/N=C/c1cccc([N+](=O)[O-])c1)C1CC1,-5.5%
O=C(NCc1ccc(Cl)cc1)NCC(F)(F)F,2.1%
Cc1ccc(S(=O)(=O)N2c3ccccc3NC(=O)C2CC(=O)Nc2ccccc2)cc1 (configuration not stated),-7.9%
CCOC(=O)Cc1csc(NC(=O)CSc2nnnn2-c2ccc(C)cc2C)n1,-5.5%
Cc1ccc(C(=O)Nc2cc3c(oc2=O)CCCC3=O)cc1,-19.7%
O=C(CSc1nnc(-c2ccc(Cl)cc2Cl)n1C1CCCCC1)N1CCCC1,-2.0%
O=C(CSc1ncnc2nc[nH]c12)NCCc1ccccc1,-3.4%
Cc1ccc(CNC(=O)CCNS(=O)(=O)c2ccc3c(c2)c(=O)n(C)c(=O)n3C)cc1,-17.3%
COc1ccc(C2c3ccc4ccccc4c3Oc3ncn(Cc4ccco4)c(=N)c32)cc1OC (configuration not stated),-3.2%

# Structures shown so far that contain an aryl thioether with sulfur outside any ring (three):
SMILES,HPGD block
CCOC(=O)Cc1csc(NC(=O)CSc2nnnn2-c2ccc(C)cc2C)n1,-5.5%
O=C(CSc1nnc(-c2ccc(Cl)cc2Cl)n1C1CCCCC1)N1CCCC1,-2.0%
O=C(CSc1ncnc2nc[nH]c12)NCCc1ccccc1,-3.4%

# Remaining list, next part
SMILES,HPGD block
Cc1cc(C(=O)NC(C)c2ccncc2)no1 (configuration not stated),-0.4%
CCOc1cc(/C=N/NC(=O)C(=O)NC)cc(Br)c1O,-14.7%
Cc1ccsc1/C=N/N1CCN(c2ccccc2)CC1,-12.0%
COc1ccc(N(CC(=O)NC2CCCC2)C(=O)CCC(=O)Nc2cc(C)on2)c(OC)c1,-12.8%
COC(=O)c1cc(OC)c(OC)cc1NC(=O)CCC1CCCC1,-26.1%
CCn1c(=O)[nH]c2ccccc2c1=O,-7.1%
CCOC(=O)c1[nH]c2ccccc2c1N=C(C)N(CC)CC,-0.5%
O=C(CCc1nc2ccccc2[nH]1)N1CCN(C(=O)c2ccco2)CC1,1.8%
O=C(NCCCN1CCOCC1)c1ccc(Sc2ccc(Br)cc2)c([N+](=O)[O-])c1,-9.3%
CCOc1ccc(N2C(=O)C3C(c4ccccc4)=NN(c4ccccc4)C3C2=O)cc1 (configuration not stated),?
O=C1C(C=NC2CC2)=C(O)c2ccccc21,-24.4%
CC(C)Cn1c(SCC(=O)NCc2ccc(Cl)cc2)nnc1-c1cccc(S(=O)(=O)N2CCOCC2)c1,-9.2%

# Quoted at random: 2 compounds from above.
SMILES,HPGD block
CCn1c(=O)[nH]c2ccccc2c1=O,-7.1%
CCOc1cc(/C=N/NC(=O)C(=O)NC)cc(Br)c1O,-14.7%

# (more compounds)
SMILES,HPGD block
CCN(CC)c1ccc(C(NC(C)=O)NC(C)=O)cc1,-14.8%
CCCCCn1c(CN(C)Cc2ccccc2)nc2c1c(=O)n(C)c(=O)n2C,-7.7%
CCc1ccc2c(COn3nnc4ccc(S(=O)(=O)N(C)C)cc43)cc(=O)oc2c1,-18.7%
COc1cc2c(cc1NC(=O)COC(=O)c1ccc(C(C)(C)C)cc1)oc1ccccc12,?
Cc1oc2ccc(OC(=O)COc3c(F)c(F)c(F)c(F)c3F)cc2c1C(=O)OC(C)C,-6.8%
CCOC(=O)C1=C(C)Nc2ncnn2C1c1c[nH]c2ccccc12 (configuration not stated),-13.1%
CCOC(=O)N1CCC(NC2CCCCCCC2)CC1,-12.9%
Cc1ccc(NC(=O)CC2SCCNC2=O)cc1Cl (configuration not stated),-1.0%
CCOC(=O)c1[nH]c2ccc(OC)cc2c1NC(=O)CCN1CCc2ccccc2C1,?
COc1ccc(OC)c(-c2csc(N(Cc3ccco3)C(=O)c3cccs3)n2)c1,?
CC(C)CNC(=O)CSc1nnc(CN2CCCCCC2=O)n1-c1ccccn1,-5.4%
O=C(Nc1ccccc1)Nc1ccccc1C(=O)NCc1ccccc1,-11.2%
CCOC(=O)C1CCN(C(=O)c2ccc(Cl)c(NC3=NC4CS(=O)(=O)CC4S3)c2)CC1 (configuration not stated),-3.0%
Cn1c(SCC(=O)NCc2cccs2)nnc1-c1cccs1,-5.3%
CCCN(CCC)C(=S)NC(=O)c1ccc(-c2ccccc2)cc1,-28.8%
O=C(OCc1cc2ccccc2[nH]c1=O)c1cccnc1,-4.8%
O=C(Nc1ccc(O)cc1)C1CCCN1S(=O)(=O)c1ccc(F)cc1 (configuration not stated),-27.8%
COC(=O)c1sc2cc([N+](=O)[O-])cc(SCC(C)C)c2c1N,-17.5%
COc1cc(CNn2nnnc2N)cc(Br)c1OCc1c(Cl)cccc1Cl,15.8µM*
Cc1ccsc1C(=O)OCC(=O)c1cc(C)n(CC2CCCO2)c1C (configuration not stated),-10.3%
CCC(CC)C(=O)Nc1cccc(C(=O)Nc2ccc(OC)cc2[N+](=O)[O-])c1,-4.8%
CC1=C(C(N)=O)C(c2ccc(Cl)cc2Cl)n2ncnc2N1 (configuration not stated),-3.5%
Cc1nc2c(C(=O)N3CCCC3)cnn2c(C)c1Cc1c(F)cccc1Cl,?
CCNC(=O)n1nccc1C(C)Oc1cccc(C(F)(F)F)c1 (configuration not stated),-2.2%
Cc1nccn1CCc1n[nH]c(=S)n1Cc1ccccc1,-7.3%
CC(NC(=O)/C=C/c1ccc(Br)cc1)c1ccc(Cl)cc1 (configuration not stated),-14.5%
O=[N+]([O-])c1nn(-c2ccc3c(c2)OCCO3)n(O)c1=NC1CCCCCC1,-4.5%
CCN(CC)CCNC(=O)C(C(=O)c1ccccc1)n1ccccc1=O (configuration not stated),-7.6%
CC12CCC(C(=O)N(CSC(=S)N/N=C\c3ccccc3O)C1=O)C2(C)C (configuration not stated),?
Cc1occc1-c1nnc(SCC(=O)NCC2CCCO2)n1C (configuration not stated),-7.0%
Cc1ccc(C)c(NC(=O)C2C3CCCC2C3c2ccccc2)c1 (configuration not stated),-5.2%
Cc1cccc(NCc2ccccc2O)n1,-15.9%
COc1ccc(-c2nc(CCNS(=O)(=O)c3ccc4c(c3)OCCO4)cs2)cc1,?
O=C(COC(=O)c1cccs1)NCc1ccc2c(c1)OCO2,-22.7%
O=C(NCc1ccccc1)Nc1cccn(Cc2ccccc2)c1=O,-13.9%
CC(=O)N1c2c(ccc3ccccc23)C(C)CC12CCCCC2 (configuration not stated),-0.2%
CCCCn1c(=S)[nH]c2c(oc3ccc(Cl)cc32)c1=O,-6.5%
CC(=O)Nc1ccc(S(=O)(=O)Oc2ccc(N3C(=O)C4CCCCC4C3=O)cc2)cc1 (configuration not stated),-15.3%
O=C(NCc1ccco1)c1ccc(Cn2c(=O)c3ccccc3n(Cc3cccc(Cl)c3)c2=O)cc1,-1.4%
CCOC(=O)CC1C(=O)NCCN1S(=O)(=O)c1ccc(Cl)cc1 (configuration not stated),-14.8%
Cc1sc(NC(=O)c2ccccc2)c(C(=O)N2CCN(C)CC2)c1C,-5.6%
Cc1cccc(CC2SC(N3CCN(c4ccccc4)CC3)=NC2=O)c1 (configuration not stated),3.4%
COC(=O)[C@@H]1C[C@H]1[C@@H](N)c1ccccc1,-3.9%
CCOC(=O)Cn1c(C)nc2c(C(=O)OCC)sc(C)c2c1=O,-17.4%
COc1cccc(OC)c1C(=O)N1CCN(Cc2ccc3c(c2)OCO3)CC1,-1.9%
N#CCCn1c(=O)c(-c2ccccc2)nc2cnc(N3CCNCC3)nc21,?
CN1C(=S)SC(/[N+]([O-])=C\c2ccc(Cl)cc2)C1(C)C (configuration not stated),-6.2%
CCOc1ccc(S(=O)(=O)Nc2cccnc2)cc1,-12.0%
COc1ccc2nc(SCC(=O)Nc3c(C)cc(C)cc3C)[nH]c2c1,-2.3%
O=CNc1ccc(S(=O)(=O)NCc2ccccc2)cc1,-9.4%
CC(C)n1c(O)c(N=Nc2ccccn2)c2ccccc21,?
CCCCNC(=S)NNC(=O)c1csc(C(C)C)c1,-18.1%
Cc1cccc(NC(=O)CSc2nc3ccccc3c3nc(CCc4c(C)n[nH]c4C)nn23)c1,-10.2%
O=C(O)c1cc(-c2ccncc2)nc2ccc(F)cc12,-23.5%
Cc1noc(NS(=O)(=O)c2ccc(NC(=O)CSc3nnc4c(n3)[nH]c3ccccc34)cc2)c1C,-18.5%
CCCCCCc1ccc(-c2ccc(C#N)cc2)cc1,-11.9%
c1ccc2c(c1)CCN(c1nc3ccccc3n3cnnc13)C2,?
CSC(=O)NC12CC3CC(CC(C)(C3)C1)C2,1.2%
CCc1nnc(NC(=O)CSc2nnc3ncccn23)s1,-26.9%
Cc1cc[n+](CC(=O)c2ccc3c(c2)OCCO3)cc1,-1.7%

# Next section.
SMILES,HPGD block
CNC(=O)c1ccsc1NC(=O)c1ccc(S(=O)(=O)N2CCOCC2)cc1,0.1%
O=C(O)c1cccc(NS(=O)(=O)c2ccc(Cl)c(C(=O)O)c2)c1,-5.1%
CC(C)Nc1ncnc2ccc(Br)cc12,-9.7%
CN1CCC(=NNC(=O)C(=O)Nc2ccccc2)CC1,3.0%
CN1c2ccccc2C(C)(C)C12CC(c1ccc(Cl)c(S(=O)(=O)N3CCCC3)c1)=NO2 (configuration not stated),-6.5%
COc1ccc(S(=O)(=O)Nc2cc(C(=O)NCCC(C)C)ccc2N2CCOCC2)cc1,-1.4%
CCOC(=O)CCC(=O)N(CCN(C(=O)CCC(=O)OCC)c1ccccc1)c1ccccc1,0.3%
CC1CCN(S(=O)(=O)c2cn(CC(=O)N3CC(C)CC(C)C3)c(=O)c3ccccc23)CC1 (configuration not stated),-14.3%
O=C(c1csnn1)N1CCC2(CC1)CCN(c1cccc(-c3ccccc3)c1)CC2,-13.0%
CC(=O)NCCC(=O)Nc1ccc(C)c(F)c1,-6.3%
Cc1nnc(SCc2cnc(-c3ccc(C(C)C)cc3)s2)n1C,-20.2%
CCOC(=O)N1CCN(C(=O)C2CCN(Cc3cccc(OCc4ccccc4)c3)CC2)CC1,-7.1%
CO[C@]1(NC(=O)Cc2cccs2)C(=O)N2C(C(=O)O)=C(COC(N)=O)CS[C@H]21,-2.8%
O=C(/C=C/c1ncc(C(F)(F)F)cc1Cl)OCc1ccccc1,-17.9%
O=C1COc2cccnc2N1,-5.1%
Cc1ccc(CNC(=O)C(=O)NCC2OCCN2S(=O)(=O)c2ccc3c(c2)OCCO3)cc1 (configuration not stated),-9.6%
CCCc1ccc(OCCNC(=O)CC)cc1,4.3%
CCCCC(=O)OCc1cn(-c2ccc(Cl)cc2)nn1,?
CC(=O)Nc1ccc(-c2c(C)cc3oc(=O)cc(-c4ccccc4)c3c2C)cc1,-22.5%
Cc1cc(C)cc(NC(=O)N2CCCC2C(=O)Nc2ccc(-n3cnnn3)c(C)c2)c1 (configuration not stated),-3.0%
O=C(O)c1cccc(CSc2ncccn2)c1,-4.2%
CC(=O)c1c(OC(=O)c2ccccc2)c2ccccc2n1C,-7.7%
N=C(N)c1ccc(N2CCN(C3CCN(CC(=O)O)CC3)CC2)cc1,-5.5%
Cc1cc(NC(=O)c2noc3c2CCc2ccccc2-3)no1,-9.6%
CCOC(=O)N1CCN(S(=O)(=O)c2ccc(C(=O)NNc3nc4cc(C)cc(C)c4s3)cc2)CC1,-14.4%
Cc1cc(C(=O)NCC(C)C)c2ccccc2n1,1.1%
CC12CCC(C(=O)NCc3ccc4c(c3)OCO4)(OC1=O)C2(C)C (configuration not stated),31.6µM*
Cc1cc(C)c2cc(C#N)c(SCC(=O)NCc3ccco3)nc2c1,-19.2%
N#C/C(C(=O)NCc1ccco1)=C1/SC(Cc2ccc(F)cc2)C(=O)N1c1ccccc1 (configuration not stated),-15.2%
Cc1nc(N)c(C#N)c(-c2ccccc2Cl)c1C,-20.6%
CN1C(=O)N(c2cccc3ccccc23)C(n2cncn2)C1(C)C (configuration not stated),-10.7%
Cc1ccc2c(c1)nnn2C1CCN(CC(=O)N2CCN(c3ccc(F)cc3)CC2)CC1,-3.1%
CC(C)c1ccc(N2CCN(C(=O)c3ccccc3NC(=O)/C=C\C(=O)O)CC2)cc1,-28.0%
CNC(=S)N(CCc1c(C)[nH]c2ccccc12)Cc1cc(OC)c(OC)c(OC)c1,-2.8%
O=C(Nc1ccc(Oc2ccccc2)cc1)C1CCCN(c2ncccn2)C1 (configuration not stated),-10.3%
Cc1ccc(-c2nnc(SCC(=O)N3CCOCC3)nc2-c2ccc(C)cc2)cc1,17.8µM*
Cc1cc(C)c2c(c1)OC(=O)CC2c1ccccc1C (configuration not stated),-8.1%
O=C(O)Cc1ccc(NC(=S)NCc2ccco2)cc1,-12.1%
CC(C)CCC(O)(CCC(C)C)C(=O)NN1CCCCC1,-9.8%
Cc1cccc(C(=O)N2CCC(=O)N(C(COCc3cccc(C(F)(F)F)c3)Cc3ccccc3)CC2)c1 (configuration not stated),-10.1%
CN(CCc1ccccn1)S(=O)(=O)c1ccc2c3c(cccc13)C(=O)N2,?
COC(=O)Nc1ccc(S(=O)(=O)N2CCC(C)CC2)cc1,0.0%
CCCCn1c(SCC(=O)c2ccc(O)c(O)c2)nc2ccsc2c1=O,-4.8%
CCCC(C)c1nnc(NC(=O)CS(=O)(=O)Cc2ccccc2)s1 (configuration not stated),12.6µM*
CCn1nnnc1SCC(=O)Nc1nc2ccc(OC)cc2s1,-14.7%
Cc1c(O)ccc2c3c(c(=O)oc12)CCCC3,?

# Compounds from the list above with a CF3 group (four):
SMILES,HPGD block
O=C(NCc1ccc(Cl)cc1)NCC(F)(F)F,2.1%
CCNC(=O)n1nccc1C(C)Oc1cccc(C(F)(F)F)c1 (configuration not stated),-2.2%
O=C(/C=C/c1ncc(C(F)(F)F)cc1Cl)OCc1ccccc1,-17.9%
Cc1cccc(C(=O)N2CCC(=O)N(C(COCc3cccc(C(F)(F)F)c3)Cc3ccccc3)CC2)c1 (configuration not stated),-10.1%

# High-throughput results: PubChem, National Center for Advancing Translational Sciences (NCATS)

# Some of the compounds tested, so the mix of outcomes need not match the whole.
